Bioassay records from PubChem.
S aureus helic: S. aureus DNA helicase inhibition; purified S. aureus helicase, fluorescence unwinding assay; about half of the hits fall short of the stated cut; inhibition, %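 (tested at about 80 µM)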; hit rate 0.05% among 120,000;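 active = both duplicates at 50% or more, or one of them with a favoured structure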;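 note: 0% = mean of negative control wells and 100% = mean of positive control wells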
MgrA DNA FP: alters Staphylococcus aureus MgrA binding to DNA | fluorescence polarization | inhibition, %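 (about 10 µg/mL by stock and volumes)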 | hit rate 0.13% among 84,000 | AID 602314;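 active = above 50% in either of two replicates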;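 note: 0% = protein plus DNA without compound and 100% = DNA alone without protein; higher means less MgrA bound to DNA so lower polarization; one replicate is shown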
Active calls of the source: *; / = not tested or not shown. A portion of the library. The share of hits here may be higher or lower than overall.

SMILES	S aureus helic	MgrA DNA FP
Cc1cnc(NC(=O)c2cccc(OC(F)F)c2)s1	-1	/
O=C1CCN(CC(=O)Nc2ccc(-c3ccccc3)cc2)CC1	3	/
C=CC#CC(C)(C)c1ccc(O)c(C)c1	5	3.0
CCOC(=O)c1cn(C2CC2)c2c(F)c(F)c(F)cc2c1=O	-3	-1.9
CCc1nc2ccccc2c(C(=O)Nc2cccc(Cl)c2)c1C	8	-6.9
O=C(O)c1cnc2sc3ccccc3n2c1=O	/	-1.4
N#C/C(=C\c1ccc(C#N)cc1)S(=O)(=O)c1ccccn1	/	-0.9
Nc1ccccc1SCC(=O)Nc1ccccc1	2	-0.8
O=C(Cn1cnc2c(oc3ccccc32)c1=O)Nc1cccc(C(F)(F)F)c1	-28	/
CC1(C(=O)O)CCC(c2nc3ccccc3[nH]2)C1(C)C (stereo unspecified)	-2	-3.2
NC(N)=NC(N)=Nc1ccc2c(c1)OCO2	/	-0.5
Cc1ccn2nc(C(=O)OCC(=O)N(Cc3ccccc3)Cc3ccccc3)nc2n1	2	/
CC(C)(C)c1ccc(/C=C/C(=O)O)s1	14	/
COC(=O)NC(Nc1ccccc1)C(=O)c1ccccc1 (stereo unspecified)	-1	/
C=CCNCc1cc2cc(OCC)ccc2[nH]c1=O	6	0.6
CCOC(=O)Nc1cccc2ccccc12	3	/
CC1(C)C2CCC3(C)OC(=O)N(N1c1ccccc1)C23C (stereo unspecified)	20	-2.1
Cc1cc(=O)oc2cc(OC(=O)c3ccco3)ccc12	-1	/
Nc1ncncc1-c1ccc(Cl)cc1	/	0.9
OCCOCCN1CCN(Cc2ccc(Cl)cc2)CC1	7	-2.2
Cc1ccc2c(c1)C(N1CCCC1=O)CC(c1ccco1)N2 (stereo unspecified)	15	3.8
CCOC(=O)c1ccc(NC(=O)c2ccccc2OC(C)=O)cc1	-21	/
Cn1c(SCC(=O)N(c2ccccc2)C2CCCCC2)nc2cc(S(N)(=O)=O)ccc21	1	/
O=C(O)CSc1nnc2c(n1)OC1(CCCCC1)Nc1ccccc1-2	21	/

Quoted at random: four records from the list.
SMILES	S aureus helic	MgrA DNA FP
Nc1ccccc1SCC(=O)Nc1ccccc1	2	-0.8
C=CC#CC(C)(C)c1ccc(O)c(C)c1	5	3.0
O=C(Cn1cnc2c(oc3ccccc32)c1=O)Nc1cccc(C(F)(F)F)c1	-28	/
Cc1cnc(NC(=O)c2cccc(OC(F)F)c2)s1	-1	/

The listing continues.
SMILES	S aureus helic	MgrA DNA FP
O=C(NCc1cc2ccccc2s1)C1CN(C(c2ccccc2)c2ccccc2)C1	/	0.0
CCC1(CC)C(=O)c2cc3ccccc3cc2C1=O	/	-2.4
Nc1ccc(-c2nn[nH]n2)cc1F	16	1.0
N#Cc1c(F)cccc1NCCO	/	-0.5
Cn1c(N)c(C(=O)COc2ccccc2Cl)c(=O)n(C)c1=O	2	/
CCC1CC(C(F)(F)F)n2ncc(C(=O)O)c2N1 (stereo unspecified)	-2	-5.8
CCOC(=O)c1cnn(CC2CCCCC2)c1N	14	-1.1
Cc1nn(CCCC(=O)NC(C)C)c(=O)c2cc3sccc3n12	4	-0.8
CC1CCCC(C)N1C(=O)c1scc2c1OCCO2 (stereo unspecified)	6	1.0
O=S(=O)(Nc1ccc2c(c1)CCC2)c1cccs1	4	-0.5
NNC(=O)C1CCCN1S(=O)(=O)c1ccc(Cl)cc1 (stereo unspecified)	17	-2.6
COCCCN1CCc2nc(SCC(=O)Nc3cccc(C(F)(F)F)c3)[nH]c(=O)c2C1	-19	/
O=C(O)CCc1nnc(-c2ccccc2)o1	6	/
CCN(CC)C(=O)CN1Cc2ccccc2C1=O	1	/
COc1ccc(-c2noc(CCCN3C(=O)c4ccccc4C3=O)n2)cc1	10	/
Cc1ccc(-c2noc(CNC(C)C)n2)cc1	4	1.2
COc1cc2nc(NCc3ccccc3)n3nc(-c4cccnc4)nc3c2cc1OC	12	/
COC(=O)c1ccc2c(=O)n3nc(NCc4ccccc4)sc3nc2c1	16	/
c1ccc2[nH]c(C3CCN(CC4OCCO4)CC3)nc2c1	7	/
O=C(CSc1ncnc2c1cnn2-c1ccccc1)c1ccccc1	1	-0.8
O=c1ccoc2ccc(Cl)cc12	8	/
CCSc1nc2c(c(=O)[nH]1)C1(CCCC1)Cc1ccccc1-2	4	2.4
CCn1ncc(Cl)c1C(=O)NC(C)c1ccccc1 (stereo unspecified)	4	/
COc1ccc(-n2c(CNc3ccccc3Cl)nnc2SCC(N)=O)cc1	0	-0.8
c1ccc2c(c1)Oc1ccccc1S2	-7	/
CCOc1ccc(C(=O)Nc2ccc(-c3nc4ncccc4o3)cc2)cc1	19	/
O=C1C2C3C=CC(C3)C2C(=O)N1c1ccc(O)cc1 (stereo unspecified)	-14	/
CCCCC#Cc1ccc(C(=O)O)o1	/	2.0
N#CCc1csc(-c2ccccc2)n1	-14	/
Cc1cc(C)c(N=C(N)/N=C(\N)NN)c(C)c1	/	-0.6
CCCOC(=O)CSc1ncnc2sc(C)c(C)c12	-27	/
O=S(=O)(Nc1ccccc1)C(Nc1ccccc1)c1ccccc1F (stereo unspecified)	-24	-0.9
O=C(Nc1ccc(Nc2ccccc2)cc1)C1CC1	9	3.1
CN(C)Cc1nnnn1CCn1nnnc1CN(C)C	-3	-0.6
Cc1ccc(S(=O)(=O)N2CCCCC2C(=O)NCCOc2ccccc2)cc1 (stereo unspecified)	4	/
CCCC(=O)Nc1c(C)nn(C(=O)CCC)c1C	9	0.6
CCN(CC)S(=O)(=O)c1cc(C(=O)OCC(=O)c2ccc3c(c2)NC(=O)CO3)ccc1Cl	5	/
CCOc1ccc2[nH]c(=O)c(C(c3nnnn3CCOC)N3CCCCC3)cc2c1 (stereo unspecified)	5	-3.6
O=C(N1CCN(c2ccccc2)CC1)C12CC3CC(CC(C3)C1)C2	12	-2.5
CN(C1CCCCC1)S(=O)(=O)Cc1ccccc1	0	14
O=c1nc2n(c3ccsc13)CC(O)=C2c1nc2ccccc2[nH]1	-8	/
CCOC(=O)CSC1=C(C#N)C(c2ccc(C(C)C)cc2)C2=C(CCCC2=O)N1 (stereo unspecified)	-1	/
CCOC(=O)c1sc2nc(CSc3ccccc3)nc(Nc3ccn(C)n3)c2c1C	-35	/
Cc1oc(N)c(C#N)c1C	7	/
O=C(Nc1ccc2c(c1)oc1ccccc12)c1cccc(N2C(=O)CCC2=O)c1	-21	1.0
O=C(CSCc1cnn(-c2ccccc2)c1-n1cccc1)NC1CCCCCC1	22	/
COc1ccc(NC(=O)C2C3C4CCC(C4)C23)cc1 (stereo unspecified)	-13	0.5
C=CC[n+]1c2n(c3ccc(F)c(F)c31)CCCCC2	-2	-2.1

A few values from the list.
Under S aureus helic, CC1(C(=O)O)CCC(c2nc3ccccc3[nH]2)C1(C)C (stereo unspecified) is entered as -2
Under MgrA DNA FP, N#Cc1c(F)cccc1NCCO is entered as -0.5
Under MgrA DNA FP, O=S(=O)(Nc1ccccc1)C(Nc1ccccc1)c1ccccc1F (stereo unspecified) is entered as -0.9
Under MgrA DNA FP, N#C/C(=C\c1ccc(C#N)cc1)S(=O)(=O)c1ccccn1 is entered as -0.9

New compounds follow:
SMILES	S aureus helic	MgrA DNA FP
COc1ccc(S(=O)(=O)N2CN3CCN(C3)C2)cc1OC	-15	/
N=C1SC2CS(=O)(=O)CC2N1c1cccc(C(F)(F)F)c1 (stereo unspecified)	-18	0.4
N#C/C(=C\NC1CCCCC1)S(=O)(=O)c1ccc(Cl)cc1	/	-0.4
CCC1CCCCN1C(=O)c1ccccc1F (stereo unspecified)	-1	-2.1
C=CCSc1nnc2n1CCCN2C(=O)Nc1cccc(Cl)c1	/	-0.7
CSC(=N\N=C(/C)c1ccc(Br)cc1)/N=C/N(C)C	/	-0.4
Cc1csc2ncnc(N3CCN(C(=S)NCC4CC4)CC3)c12	/	-2.5
O=C(CSc1nnc(-c2ccco2)c(-c2ccco2)n1)N1c2ccccc2Sc2ccc(Cl)cc21	7	22
CCOC(CN(C(=O)c1ccc(F)cc1)c1ccc(F)cc1)OCC	/	-0.6
CCOC(=O)c1c(C=O)oc2c(C)cc(OC(=O)c3ccc([N+](=O)[O-])cc3Cl)c(Br)c12	/	-1.1
N#Cc1ccccc1Cn1c(=O)n(-c2ccccc2)c(=O)c2ccc(C(=O)NCc3ccco3)cc21	-28	/
CC(C)(C)NNC(=O)c1ccccc1N	/	-0.6
O=C(c1cc2ccccc2cc1O)N1CCCCCC1	3	-0.9
CC(C)c1csc2nc[nH]c(=O)c12	/	-1.5
Cc1ccc(-c2cc(C(F)(F)F)n3ncc(C(=O)OC(C)C)c3n2)cc1	17	-0.2
COc1ccc2oc3nc(=O)c4ccccc4c-3cc2c1	10	9.0
CN(C)c1ncnc(Cl)c1N	1	1.1
CSc1nc(-c2cccs2)c(C#N)c(=O)n1C	/	-2.9
Cn1c(C(=O)NC2CCCC2)cc2c(=O)n(C)c3ccccc3c21	-2	-1.9
c1ccc(CCNC2=NCCS2)cc1	-18	-1.2
Cc1ccc(CNC(=O)c2c[nH]n3c(=O)cc(CSc4ccc(Cl)cc4)nc23)cc1	17	18
CCc1ccc2[nH]c(=O)c(CN(Cc3ccco3)C(=S)NCC(C)C)cc2c1	-3	4.5
O=C(O)CNC(=S)N(Cc1ccco1)Cc1ccccc1Cl	6	/
O=C(c1cc2c(=O)[nH]c3ccccc3c2s1)N1CCCC1	-1	-0.1
Brc1snnc1-c1ccccc1	/	-1.1
CCn1c(C(=O)N2CCCC(C(=O)NC3CCCC(C)C3C)C2)cc2sccc21 (stereo unspecified)	-1	/
COc1ccc(Cl)cc1NC(=O)CN(C(=O)c1ccccc1)C1CCCCC1	-1	-1.4
CCOC(=O)C(C(=O)c1ccccc1)C1(O)C(=O)c2ccccc2C1=O (stereo unspecified)	-4	/
Cc1nc2cc(C(=O)O)ccc2n1-c1ccccc1	-25	2.2
COC(=O)Cc1cnc(NC(=O)CSc2nc(C(C)C)cc(=O)[nH]2)s1	3	-1.7
CCOCC(=O)Nc1cc(C)cc(C)c1	14	1.9
COC(=O)c1ccc(NC(=O)CCc2ccccc2)cc1	-22	-1.5
CN1CCN(Cc2c(O)ccc3cc(-c4nc5ccccc5n4C)c(=O)oc23)CC1	-37	/
O=C(Nc1ccc(N2CCOCC2)cc1)c1oc2ccccc2c1CSc1ncn[nH]1	7	/
COC(=O)CN(C)C(=O)c1cc(OC)c(OC)c(OC)c1	2	-1.4
COc1nsc(Br)c1C#N	8	-1.8
Cc1ccc(-c2ncnn2-c2sc3c(c2C#N)CCCCC3)cc1	-11	/
Cc1ccccc1COC(=O)C1CCN(S(=O)(=O)c2ccc3c(c2)OCCO3)CC1	10	/
CCOC(=O)C1CCN(C(=O)/C=C/c2c(Cl)nc3sccn23)CC1	-13	/
CCCn1nnc(NC(=O)Cc2ccc(Cl)cc2)n1	5	/
CCOC(=O)c1sc(N)c(C#N)c1CSC1=N/C(=C\c2ccco2)C(=O)N1c1ccc(OC(F)F)cc1	-17	/
O=c1cc(CSc2ncn[nH]2)nc2sccn12	8	/
NS(=O)(=O)c1ccc(NC(=O)Cn2cc(C(F)(F)F)ccc2=O)cc1	2	/
CC(C)(C)C(=O)COC(=O)c1cc(-c2ccccc2)nc2ccccc12	-4	-3.8
N#CCCSc1nnc2c(Cl)cc(Cl)cn12	-8	/
CCN(CC(=O)NCc1ccc(F)cc1)Cc1cc(=O)n2ccsc2n1	31	/
Cc1ccc(CNC(=O)c2ccc(OCC(C)C)cc2)n1C	8	/
Cc1ccc(C)c(-c2csc(N)c2C#N)c1	-13	1.0
CCc1n[nH]c(=S)n1/N=C/C(C)=C\c1ccccc1	-6	2.5
CCCS(=O)(=O)N1CCC(C(=O)NCc2ccc(F)cc2)CC1	4	/
CCc1ccc(Oc2coc3cc(OC(=O)C(C)C)ccc3c2=O)cc1	-15	-0.1
COc1cc(-c2nn3c(-c4ccc(C(C)(C)C)cc4)nnc3s2)cc(OC)c1OC	15	4.4
O=C(Nc1nc2c(Br)cc(Br)cc2c(=O)s1)c1cccs1	/	-0.4
CCCN1C(=O)CC(C(=O)OC)=C1C	18	-1.8
COc1ccc(C)cc1NC(=O)CN(C)Cc1nc2ccccc2c(=O)[nH]1	-9	/
CCOC(=O)c1oc2cc(O)c(CC)cc2c(=O)c1-c1cscn1	-3	/
COC(=O)c1ccc(Cn2nnc3ccccc32)cc1	/	-2.6
O=C(NCCc1nc2ccccc2[nH]1)C1COc2ccccc2O1 (stereo unspecified)	-5	1.4
COc1ccccc1-c1[nH]ncc1CNC1CCCCC1	-5	-0.1
O=C(COc1ncnc2ccccc12)NC1CCCC1	-15	/

Part of the list above, field by field.
O=C1C2C3C=CC(C3)C2C(=O)N1c1ccc(O)cc1 (stereo unspecified)
- S aureus helic = -14
- MgrA DNA FP = /

COC(=O)CN(C)C(=O)c1cc(OC)c(OC)c(OC)c1
- S aureus helic = 2
- MgrA DNA FP = -1.4

CCOC(=O)c1sc(N)c(C#N)c1CSC1=N/C(=C\c2ccco2)C(=O)N1c1ccc(OC(F)F)cc1
- S aureus helic = -17
- MgrA DNA FP = /

c1ccc2c(c1)Oc1ccccc1S2
- S aureus helic = -7
- MgrA DNA FP = /

Next records follow:
SMILES	S aureus helic	MgrA DNA FP
COC(=O)CNC(=O)c1cccnc1Oc1ccc(Cl)cc1	/	-1.5
Nc1ccc2nc(-c3ccccc3Br)sc2c1	5	/
COc1cc(/C=N/NS(=O)(=O)c2ccc(Br)cc2)cc(OC)c1O	-11	/
CCCCOCC1CN(c2ccccc2)C(=O)CS1 (stereo unspecified)	-1	11
COc1ccc(NC(=O)C2CCCO2)c(OC)c1 (stereo unspecified)	-3	-1.5
COC(=O)c1cscc1OC(=O)c1ccc(C(F)(F)F)cc1	/	-2.3
CC(C)Oc1ccc(CNC(=O)C2CCCCC2)cc1	7	-0.8
Fc1ccc(Nc2nc3ccc(F)cc3s2)cc1	-13	0.5
O=C(Nc1cccc(F)c1)C1CCN(c2ncnc3c2sc2cccc(F)c23)CC1	3	-1.6
Cc1ccc(CNC(=O)c2cc3c(C)nc4ccccc4c3o2)cc1	8	/
O=C(Nc1cccc2c1C(=O)c1ccccc1C2=O)c1ccc(S(=O)(=O)N2CCOCC2)cc1	/	4.7
CCOc1ccc(-n2c(-c3ccco3)nc3c(cnn3-c3ccc(Cl)cc3)c2=O)cc1	-23	/
